CapD inh: Bacillus anthracis CapD inhibitors, primary screen, biochemical, fluorescence intensity; purified CapD enzyme, fluorescence intensity read-out; active compounds read low; some hits fall short of the stated cut; 140,000 tested, 0.23% active; CapD gamma-glutamyltranspeptidase (Bacillus anthracis Ames Ancestor); z-score (no concentration beside the values);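 active means z-score under -4 in either of two replicates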;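 further: stock transfer was 100 nL into about 40 µL; score is relative to mean and spread of the plate; one replicate is shown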
AID504770: growth inhibition of E. coli YBA685, primary screen, V. cholerae RctB inhibitors; E. coli YBA685 rctB-dependent plasmid, OD600 growth, 3 h; active compounds read low; z-score (test concentration not listed); 130,000 tested, 0.27% active;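 active means z-score under -2 on both plates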;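 further: wells of about 30 µL received 100 nL stock; score is relative to mean and SD of the test wells; the first replicate is given; strong numbers were not always called active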
Numbers without * were called inactive; x = no result given. Some of the compounds tested (hit frequency here may not be typical).

canonical_smiles | CapD inh | AID504770
N#Cc1cn(CCCOc2ccccc2Cl)c2ccccc12 | 1.7 | 0.6
O=C1CN(C(=O)Cc2ccsc2)c2ccccc2N1 | x | -0.65
O=C(CSc1nc2[nH]ncc2c(=O)n1-c1ccccc1)c1ccc2c(c1)OCCO2 | 1.2 | 0.55
CCC(C)(C)c1ccc(S(=O)(=O)N(C)CCc2c[nH]c3ccccc23)cc1 | -0.95 | x
N#Cc1c(NC(=O)c2ccc(N3C(=O)C4C5C=CC(C5)C4C3=O)cc2)sc2c1CCCC2 (stereo not drawn) | -0.085 | x
CCN(CC)c1nc(C)nc2sc(C(=O)Nc3cc(Cl)ccc3OC)c(C)c12 | 4.3 | -0.9
COc1ccc(N2COc3cc4c(cc3C2)OCO4)cc1 | -1.4 | -0.45
NNC(=O)c1cn2cc(C(F)(F)F)cc(Cl)c2n1 | 0.005 | 0.65
CCn1c(Nc2ccccc2Cl)nc2ccccc21 | 0.06 | 0.05
CC(=O)Nc1ccc(S(=O)(=O)NC2CCCCC2C)cc1 (stereo not drawn) | -0.16 | 2.8

canonical_smiles | CapD inh | AID504770
Fc1ccccc1Cn1nnc2ccccc21 | x | 4.3
O=C1CC2OCC=C3CN4CC[C@]56c7ccccc7N1C5[C@H]2[C@H]3CC46 (stereo partly drawn) | -0.17 | 0.7
COc1ccc(-c2cc3c(=O)n(CC(=O)N(C)Cc4ccccc4)nc(C)n3n2)cc1 | 1.6 | -0.55
COC(=O)c1ccc(N2C(=O)/C(=C/c3ccc([N+](=O)[O-])cc3)C=C2c2ccccc2)cc1 | -0.13 | x
O=C(O)CCNS(=O)(=O)c1ccccc1C(F)(F)F | 0.76 | -1.1
CCCn1c(C)cc(/C=C(\C#N)C(N)=S)c1C | x | -2
CCN(CC)C(=O)c1sc(NC(=S)NCCn2cc(Br)cn2)c(C(=O)OC)c1C | -0.72 | -0.7
CCOC(=O)c1sc(=S)n(-c2cccc3ccccc23)c1N | 0.19 | x
O=C(NCc1cccc(Cl)c1)c1ccc2c(c1)[nH]c(=S)n1c3ccccc3nc21 | 0.37 | x
Cc1ccccc1-c1nc2cc(Cl)ccc2c(=O)o1 | 0.77 | -0.4

canonical_smiles | CapD inh | AID504770
Cc1ccc(OCc2nc(SCC(=O)c3ccc4c(c3)OCO4)n[nH]2)cc1 | x | -0.6
COc1ccc(NC(=S)Nc2c(C)cccc2C)cc1OC | 0.23 | x
C[C@H](NC(=O)Cc1cccc2ccccc12)C(=O)N1CCOCC1 | x | -0.45
CCCNC(=O)c1ccc(-c2ccccc2)s1 | 73 | 0.05
CSc1nc(Sc2ccc(Cl)cc2Cl)c2sccc2n1 | -0.43 | x
CCC1CCCCN1C(=O)c1cn(C)c(=O)c2cc(OC)c(OC)cc12 (stereo not drawn) | 9.1 | 0.05
NC(=O)c1c(Nc2ccccc2)n[nH]c1N | -0.36 | -0.2
CC1(C)C2CC=C(/C=N/NC(=O)c3cccnc3)C1C2 (stereo not drawn) | x | -0.35
Cc1oc(C(C)(C)C)cc1C(=O)N1CCN(c2ncccc2C(F)(F)F)CC1 | 10 | 0.35
N#CC(C#N)=c1s/c(=C\c2ccc(-c3ccccc3Cl)o2)c(=O)n1-c1ccccc1 | x | -0.3

canonical_smiles | CapD inh | AID504770
O=C(CSc1nnc(-c2cccnc2)n1Cc1ccccc1)c1c[nH]c2ccccc12 | -0.36 | x
Cc1cccc(NC(=O)c2cccc(N3C(=O)CCC3=O)c2)c1 | -0.61 | 2.2
Cc1ccc(N(CC(O)CN2C(=O)NC(C)(C)C2=O)S(=O)(=O)c2ccccc2)cc1 (stereo not drawn) | 0.72 | 0.45
O=C(OCc1ccccc1)c1ccccn1 | 0.26 | 0.35
c1cncc(-c2nn[nH]n2)c1 | 0.36 | -0.75
COCCNC(=O)c1ccc(NC(=O)c2cccc(OC)c2)cc1 | 0.49 | -0.05
N#Cc1ccc(OCc2ccc3nonc3c2)cc1 | -0.5 | 0.15
C/C(=N\NC(N)=O)C1(C)N(O)C(C)(C)C(c2ccco2)=[N+]1[O-] (stereo not drawn) | x | 1.2
COc1ccccc1C1CCN(Cc2ccc3ccccc3c2)CC1 | 0.64 | x
O=S(=O)(NC1CCCCC1)c1ccc(N2CCOCC2)nc1 | 3.3 | -2.5

canonical_smiles | CapD inh | AID504770
O=C(Nc1cc(=O)c2ccccc2o1)OCc1ccccc1 | 0.18 | -0.45
CCCCNC(=O)c1ccc2c(c1)NC(=O)CN2C | 3 | -0.3
CC(=O)Nc1ccc(Cl)cc1C(=O)OCC(=O)c1ccc(Br)cc1 | -0.29 | 1.1
N#CC1=C(SCC(=O)N2CCc3ccccc32)NC2=C(C(=O)CCC2)C1c1cccnc1 (stereo not drawn) | x | -0.7
Cc1cc(/C(N)=N/O)cc(/C(N)=N/O)c1 | 0.38 | x
O=C(CCC(=O)N1CCc2ccccc2C1)NC1CCN2CCCc3cccc1c32 (stereo not drawn) | 1.2 | x
O=C(CCCN1Cc2ccccc2C1)c1ccc(F)cc1 | 0.11 | -1
COc1cc(OC)nc(N2CCN(C(=O)c3ccccc3N)CC2)n1 | 2.2 | x
O=C(O)c1cc(N2C(=O)C3C4C=CC(CC4)C3C2=O)ccc1Cl (stereo not drawn) | 0.48 | x
O=C(CSc1nc2c(c(=O)n1-c1ccccc1)SCC2)NCc1ccccc1 | -0.24 | -0.05

canonical_smiles | CapD inh | AID504770
Cc1ccc(SCc2cc(=O)[nH]c(=O)[nH]2)cc1 | 0.36 | x
CN(C(=O)COc1ccc(Oc2ccccc2)cc1)C1CCS(=O)(=O)C1 (stereo not drawn) | 0.53 | 0.45
COc1ccc(-c2cc3c(S(=O)(=O)c4ccccc4)cc(NC(=O)c4ccco4)cc3n2C)cc1 | 102 | -0.3
O=C(c1ccco1)N1CCN(C(=O)C2c3ccccc3C(=O)N3CCc4ccccc4C23)CC1 (stereo not drawn) | 0.35 | 0.35
CC1=CCC(c2cnc(-c3ccccc3)c(C)c2)N(C)C1c1ccccc1 (stereo not drawn) | -0.03 | -0.45
CCCOc1ccc(NC(=O)C2CC(=O)N(CC)C(=Nc3ccccc3OC)S2)cc1 (stereo not drawn) | 0.12 | x
O=C(NC1CCN(C(=O)c2ccc(Cl)cc2Cl)CC1)c1ccccc1 | -0.7 | -0.85
C=CCn1c(SCC(=O)Nc2ccc(F)cc2)nc2sc(CC)cc2c1=O | -0.005 | x
N#Cc1nc(-c2ccccc2)oc1NCc1ccccc1 | 100 | 1.7
CC(=O)OCCN1C(=O)C2C3c4ccccc4C(c4ccccc43)C2C1=O (stereo not drawn) | 0.5 | x

canonical_smiles | CapD inh | AID504770
Cc1c([N+](=O)[O-])c(/C=C/N(C)C)nn1C | 0.07 | x
COc1cc(C(=O)N2Cc3ccccc3CC2C)cc(OC)c1OC (stereo not drawn) | 0.08 | 0.05
CCn1c(=S)[nH]c2cc3ccccc3cc2c1=O | x | -0.85
CCOC(=O)N1CCN(C(=O)c2ccc3c(c2)NC(=O)/C(=C/c2ccccc2)S3)CC1 | 0.38 | -1.3
Cc1onc(-c2c(F)cccc2Cl)c1C(=O)N(C)C1CCCCC1 | 1.1 | -0.75
CC(=O)n1nccc1-c1sc2ccc(Cl)cc2c1C | -0.17 | 0.5
CCC1=Nc2cc(C(=O)O)ccc2Sc2ccccc21 | -0.35 | -1.4
COc1ccc(-n2cc(C(=O)Nc3cccc(SC)c3)nn2)cc1 | 7.1 | 0.55
CC(=O)N/C(=C\c1ccc(F)cc1)C(=O)N(C)C | 0.44 | -0.45
CSc1nc(/N=C/N(C)C)n(-c2ccccc2)n1 | 0.04 | 0.7

canonical_smiles | CapD inh | AID504770
Cc1cc(C)c(S(=O)(=O)Nc2ccc3oc4c(c3c2)C(=O)CCC4)c(C)c1 | -0.37 | x
Cc1cc(NC(=O)COc2ccccc2)no1 | -0.17 | 0.25
Cc1c(C(=O)O)sc2nc3n(c(=O)c12)CCC(C)CC3 (stereo not drawn) | -0.07 | 0.15
COC(=O)c1c(NC(C)=O)sc2c1CCS2 | 3.4 | -0.65
CC(C)NC(=O)C1CCN(C(=O)NCc2ccccc2)CC1 | x | -0.75
O=C(Nc1cccc(F)c1)N1C2CCC1CC(O)(c1cccnc1)C2 (stereo not drawn) | x | -0.7
Cc1ccccc1NC(=O)CCCn1sc2ccccc2c1=O | 0.21 | 0.75
Cc1cc(C)n2ncc(/C(N)=N/O)c2n1 | 0.68 | -0.45
COc1cc(OC)nc(C2CCN(C(=O)CCC(=O)NCc3cccc(C(F)(F)F)c3)CC2)n1 | -0.31 | x
CC(=O)N1CCc2ccc(NS(=O)(=O)c3ccc(Cl)cc3)cc21 | -0.61 | x

canonical_smiles | CapD inh | AID504770
O=C(O)CCCN1C(=O)C(=O)/C(=C(/O)c2ccccc2)C1c1ccc(Br)cc1 (stereo not drawn) | -0.3 | x
C=CCNC(=O)CN1CCN(S(=O)(=O)c2cc(C)ccc2C)CC1 | x | -0.35
Cc1c(C)c(C)c(Br)c(C)c1C | -0.01 | x
COc1ccccc1NC(=O)CSc1nc2ccccc2c(=O)n1CCCC(=O)NCc1cccc(Cl)c1 | -0.27 | x
O=C(CS(=O)c1ccccc1Cl)Nc1ccc(Cl)cc1Cl (stereo not drawn) | -0.58 | x
c1ccc(-c2ccc(-c3cs/c(=N\c4nc(-c5ccccc5)cs4)n3-c3ccccc3)cc2)cc1 | -0.14 | x
N#Cc1ccc(S(=O)(=O)N2CCN(c3cccc4[nH]ccc34)CC2)cc1 | 0.98 | 1.1
O=c1ccnc(S/C=C/c2ccccc2)[nH]1 | -0.83 | 2.1
Cc1cccc(C)c1NC(=O)Cn1c(S(=O)(=O)CC(N)=O)nc2ccccc21 | 0.28 | 0.75
Cn1c(CS(=O)(=O)c2ccccc2)cnc1SCc1ccc(F)cc1 | 0.075 | x

canonical_smiles | CapD inh | AID504770
Cc1ccccc1-c1nnc(C2CCN(S(=O)(=O)c3ccc4c(c3)CCCC4)CC2)o1 | -0.48 | 1.1
Cc1ccc(Cl)c(NC(=O)COC(=O)c2ccncc2)c1Cl | 0.43 | 0.4
O=C(O)CNS(=O)(=O)Cc1ccccc1 | x | 1.8
CCS(=O)(=O)CCn1c([N+](=O)[O-])cnc1C | -1.5 | -0.85
Cc1noc(C)c1CSc1ccc(Br)cc1 | 0.45 | -0.45
C=CCNC(=O)CSc1nc2ccccc2o1 | x | -1.9
CCOC(=O)C(NC(=O)c1nn(-c2ccccc2)nc1C)C(=O)OCC | 0.28 | x
C/C(=N\O)C(=O)OC1CC(C)CCC1C(C)C (stereo not drawn) | -0.03 | -0.3
COCCn1c(=NC(=O)c2c(F)cccc2F)sc2cc(OC)ccc21 | 6.2 | -1.4
COc1ccc(/C=C2/C(C)=C(C#N)c3nc(N)c(C#N)c(C)c32)cc1Br | -0.26 | x

Given as labelled records: four of the compounds above.
CCOC(=O)C(NC(=O)c1nn(-c2ccccc2)nc1C)C(=O)OCC
  CapD inh: 0.28	AID504770: x
C/C(=N\O)C(=O)OC1CC(C)CCC1C(C)C (stereo not drawn)
  CapD inh: -0.03	AID504770: -0.3
COCCn1c(=NC(=O)c2c(F)cccc2F)sc2cc(OC)ccc21
  CapD inh: 6.2	AID504770: -1.4
COc1ccc(/C=C2/C(C)=C(C#N)c3nc(N)c(C#N)c(C)c32)cc1Br
  CapD inh: -0.26	AID504770: x

(more compounds)
canonical_smiles | CapD inh | AID504770
N#CC1(C#N)[C@H](c2ccc(Cl)c([N+](=O)[O-])c2)[C@@H](C(=O)C23CC4CC(CC(C4)C2)C3)N2c3ccccc3C=C[C@@H]21 | -0.88 | x
C=CCn1c(=O)c(C(=O)Nc2ccc(I)cc2)c(O)c2ccccc21 | 0.12 | x
O=S(=O)(c1ccc(N=C=S)cc1)N1CCOCC1 | x | -2.5
CN1C(=O)CSc2ccc(NC(=O)N3CCC(N4CCCCC4)CC3)cc21 | 0.46 | -0.1
COc1cc(OC)c(NC(=O)C2CCCN(c3nnc(-n4cccc4)s3)C2)cc1Cl (stereo not drawn) | -0.93 | -0.35
CNC(=S)Nc1cc(C)ccn1 | x | -0.8
O=C1c2ccccc2C(=O)N1OCc1ncc(C(F)(F)F)cc1Cl | 0.67 | x
CNC(=O)c1ccc(N2CCSc3ccccc32)s1 | 9.3 | 0.1
COc1ccccc1C(=O)Nc1c2c(nn1-c1ccc(Oc3ccccc3)cc1)CSC2 | 0.065 | -0.85
CCOC(=O)c1cc(C#N)c(N2CCN(S(=O)(=O)c3cccc(Cl)c3Cl)CC2)nc1C(F)(F)F | 0.47 | x

canonical_smiles | CapD inh | AID504770
CCc1ccc(/C=C2\SC(=S)N(CCCC(=O)NC3CCCC3)C2=O)cc1 | 0.32 | -0.65
N#CC1=C(N2CCCCC2)c2cc3c(n2C1=O)CCCC3 | -2.7 | 0.05
Cc1ccc(C)c(-c2csc(=Nc3ccc(F)cc3)n2CCc2ccccc2)c1 | -0.27 | x
Cc1cc(C(=O)CSc2nncn2C)c(C)n1CCc1ccc(Cl)cc1 | x | 0.25
Cc1c(Cl)c(C)c(C2=NON3N(C(=O)Cc4ccccc4)c4ccccc4N23)c(C)c1Cl | 0.21 | x
O=C(CCN1C(=O)c2cccc([N+](=O)[O-])c2C1=O)Nc1ccc(Cl)cc1C(=O)c1ccccc1 | -0.36 | x
COc1cccc(/C=N/NC(=O)c2cc(C3CC3)nc3ccccc23)c1O | -0.48 | x
O=C(CCCCc1nc2ccccc2s1)Nc1ccccc1 | 0.085 | -0.45
COc1ccccc1N1CCN(c2ncc(C(=O)Nc3cc(OC)c(OC)c(OC)c3)c3ccccc23)CC1 | 0.46 | 0.8
CC(=O)N1CCC(N(C(=O)COCc2ccccc2)C2CC2)CC1 | -0.42 | x
CCC(Sc1nnc2c3ccccc3n(C)c2n1)C(=O)Nc1ccc(Cl)cn1 (stereo not drawn) | 0.23 | -0.8
CC1=C(c2ccccc2)S(=O)(=O)NC1=NCCCN1CC(C)CC(C)C1 (stereo not drawn) | 0.46 | -1.1

Screening results: PubChem, ICCB-Longwood Screening Facility, Harvard Medical School
